# Assay outcomes deposited in PubChem BioAssay by Broad Institute.
# ID4 binder: ID4 (human) binding | P47928 | small molecule microarray, Flag-ID4 binding, fluorescence F/B | calls only | hit rate 1.2% among 31,000 | AID 624137;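 active = spot signal over background at p below 0.07 in all four prints; compounds were printed on slides so no solution concentration is given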;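 note: a binder raises fluorescence above local background on the spot; about 2 pmol printed per array spot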
# Target sequence (P47928 whole entry, looked up): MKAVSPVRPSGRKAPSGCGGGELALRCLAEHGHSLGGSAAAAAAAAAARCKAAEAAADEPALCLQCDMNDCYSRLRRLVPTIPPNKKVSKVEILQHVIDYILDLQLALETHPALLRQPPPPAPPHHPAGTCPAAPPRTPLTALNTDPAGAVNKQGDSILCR
# Calls only; i = inactive; + = active, no number. Some of the compounds tested; count on the stated rates, not on these rows.
# Start of the data: the first 5 records, ahead of the listing:
Molecule	ID4 binder
O=C(CC1CC1)Nc1ccc2c(c1)[C@@H]1C[C@H](CC(=O)NC3CCCC3)O[C@H](CO)[C@@H]1O2	+
COC(=O)c1ccc(C)c(NC(=O)COc2ccccc2C)c1	i
COc1ccccc1C(=O)Nc1ccc(S(=O)(=O)Nc2nc(C)cc(C)n2)cc1	i
CC(=O)OCC(=O)[C@@]1(O)CCC2C3CC[C@@H]4C[C@H](OC(C)=O)CC[C@]4(C)C3C(=O)C[C@@]21C (some centres not stated)	i
CN1CCN(c2ccccc2NC(=O)COc2ccc([N+](=O)[O-])cc2)CC1	i

# Results, from the first entry:
Molecule	ID4 binder
O=C(CC1CC1)Nc1ccc2c(c1)[C@@H]1C[C@H](CC(=O)NC3CCCC3)O[C@H](CO)[C@@H]1O2	+
COC(=O)c1ccc(C)c(NC(=O)COc2ccccc2C)c1	i
COc1ccccc1C(=O)Nc1ccc(S(=O)(=O)Nc2nc(C)cc(C)n2)cc1	i
CC(=O)OCC(=O)[C@@]1(O)CCC2C3CC[C@@H]4C[C@H](OC(C)=O)CC[C@]4(C)C3C(=O)C[C@@]21C (some centres not stated)	i
CN1CCN(c2ccccc2NC(=O)COc2ccc([N+](=O)[O-])cc2)CC1	i
C=CCn1c(SCC(=O)O)nnc1-c1ccncc1	i
CC(Oc1cccc(NC(=O)c2ccccc2Cl)c1)C(=O)c1ccc(Cl)cc1 (configuration not stated)	i
CC(=O)c1cccc(NC(=O)CSc2nc(N3CCCCC3)nc(N3CCCCC3)n2)c1	i
C=CCNC(=O)[C@H]1[C@@H]2C(=O)O[C@@H](c3ccccc3)[C@@H](c3ccccc3)N2[C@@H](c2ccc(O)cc2)[C@]12C(=O)Nc1ccc(C#Cc3ccc(OC)cc3)cc12	i
COc1ccc(NC(=O)CSc2nc3ccccc3c(=O)n2-c2ccc(C)cc2)cc1Cl	i
C[C@@H]1CN([C@@H](C)CO)C(=O)CCCn2nncc2CO[C@@H]1CN(C)CC1CC1	i
COc1ccc(S(=O)(=O)N(CC(=O)O)c2ccc(Cl)cc2)cc1	i
COc1ccccc1-c1cnc2c(c1)C(=O)N([C@@H](C)CO)C[C@H](C)[C@@H](CN(C)Cc1ccc(F)cc1)O2	i
COc1ccccc1-c1cnc2c(c1)C(=O)N([C@H](C)CO)C[C@H](C)[C@H](CN(C)Cc1ccccc1)O2	i
COc1ccc(-c2nnc3c4ccccc4c(C)nn23)cc1S(=O)(=O)N1CCCCC1	i
Cc1ccc(-c2noc(CSc3nnnn3-c3ccccc3)n2)cc1	i

# Given with each value named: entries from further up
CC(Oc1cccc(NC(=O)c2ccccc2Cl)c1)C(=O)c1ccc(Cl)cc1 (configuration not stated)
  ID4 binder: i

CC(=O)c1cccc(NC(=O)CSc2nc(N3CCCCC3)nc(N3CCCCC3)n2)c1
  ID4 binder: i

C=CCNC(=O)[C@H]1[C@@H]2C(=O)O[C@@H](c3ccccc3)[C@@H](c3ccccc3)N2[C@@H](c2ccc(O)cc2)[C@]12C(=O)Nc1ccc(C#Cc3ccc(OC)cc3)cc12
  ID4 binder: i

COc1ccc(NC(=O)CSc2nc3ccccc3c(=O)n2-c2ccc(C)cc2)cc1Cl
  ID4 binder: i

# Next entries follow.
Molecule	ID4 binder
C[C@@H]1CN([C@@H](C)CO)S(=O)(=O)c2ccc(-c3cncnc3)cc2O[C@H]1CN(C)C(=O)NC1CCCC1	i
CC(=O)N(C)C[C@H]1Oc2ncc(-c3ccccc3C)cc2C(=O)N([C@H](C)CO)C[C@H]1C	i
O=C(CSc1nnc(-c2ccncc2)n1-c1ccccc1Cl)Nc1ccc(C(=O)O)cc1	i
CC(C)NC(=O)N(C)C[C@@H]1Oc2ccc(N(C)C)cc2C(=O)N([C@H](C)CO)C[C@H]1C	i
O=C(C[C@@H]1C=C[C@H](NC(=O)C2CCC2)[C@H](CO)O1)NCC1CC1	i
CC(=O)c1ccc(NC(=O)CCn2cnc3ccccc3c2=O)cc1	i
Cc1cc([N+](=O)[O-])ccc1NC(=O)CSc1nnc(-c2ccc(Cl)cc2Cl)n1C	i
CCCC#Cc1ccc2c(c1)O[C@@H](CN(C)CCC)[C@H](C)CN([C@@H](C)CO)S2(=O)=O	i
COC(=O)N(C)C[C@@H]1OCc2ccccc2-c2ccccc2C(=O)N([C@H](C)CO)C[C@@H]1C	i
COc1ccc(NC(=O)c2ccco2)cc1NC(=O)COc1cc(C)c(Cl)c(C)c1	i
C[C@@H]1CN([C@H](C)CO)C(=O)c2cc(C#Cc3ccccc3)cnc2O[C@H]1CN(C)Cc1ccccn1	i
CC1CCc2c(sc3ncnc(SCCOc4ccccc4)c23)C1 (configuration not stated)	i
C[C@@H]1CN([C@@H](C)CO)C(=O)c2cc(C#Cc3ccc(F)cc3)cnc2O[C@@H]1CN(C)Cc1ccccn1	i
COc1cccc(N(CC(=O)Nc2ccc(I)cc2C)S(C)(=O)=O)c1	i
Cc1ccc(S(=O)(=O)NC(C)C(=O)Nc2ccc(Br)cc2)cc1 (configuration not stated)	i
CN(C)CC(=O)N[C@@H]1C=C[C@@H](CC(=O)NCc2ccccc2F)O[C@@H]1CO	i
CC(C)CC#Cc1cnc2c(c1)C(=O)N([C@@H](C)CO)C[C@H](C)[C@@H](CN(C)C(=O)c1ccccc1F)O2	i
CCCC#Cc1cnc2c(c1)C(=O)N([C@H](C)CO)C[C@H](C)[C@@H](CN(C)C(=O)c1cccc(F)c1)O2	i
CCCN(C)C[C@@H]1Oc2ncc(C#CC3CC3)cc2C(=O)N([C@H](C)CO)C[C@@H]1C	i
CC(C)CC#Cc1cnc2c(c1)C(=O)N([C@H](C)CO)C[C@@H](C)[C@@H](CN(C)Cc1ccccn1)O2	i
Cc1ccccc1-c1cnc2c(c1)C(=O)N([C@@H](C)CO)C[C@H](C)[C@@H](CN(C)C(=O)CN(C)C)O2	i
CC(=O)c1ccc(NC(=O)COc2ccccc2C(=O)Nc2sc3c(c2C#N)CCCC3)cc1	i
O=C(C[C@H]1C[C@@H]2c3cc(NC(=O)c4ccc5c(c4)OCO5)ccc3O[C@@H]2[C@@H](CO)O1)NCCN1CCCCC1	i
CCN(CC(=O)Nc1cccc(C(F)(F)F)c1)S(=O)(=O)c1ccc(C)cc1	i

# (more compounds)
molecule | ID4 binder
C[C@@H]1CN([C@H](C)CO)C(=O)c2cc(C#CC(C)(C)O)cnc2O[C@H]1CN(C)Cc1cccc(C(=O)O)c1 | i
C[C@H]1CN([C@@H](C)CO)C(=O)c2cc(C#CCN(C)C)cnc2O[C@@H]1CN(C)Cc1ccncc1 | i
COc1ccc(C2CC(=O)c3ccccc3O2)cc1 (configuration not stated) | i
CC(C)C#Cc1ccc2c(c1)O[C@H](CN(C)CC1CC1)[C@H](C)CN([C@H](C)CO)S2(=O)=O | i
C[C@H]1CN([C@@H](C)CO)C(=O)c2cc(-c3cccc(F)c3)cnc2O[C@H]1CN(C)Cc1cccnc1 | i
O=C(CSc1nc(O)cc(=O)n1-c1ccccc1F)Nc1ccc(Cl)cc1Cl | i
Oc1ccccc1C1=Nc2ccccc2N=C(c2ccc(Cl)cc2)C1 | i
Cn1c(SCC(=O)Nc2ccccc2Cl)nnc1-c1ccc(Br)cc1 | i
CCn1c(SCC(=O)c2ccc(Br)cc2)nnc1-c1ccncc1 | i
O=C(C[C@@H]1CC[C@H](NC(=O)c2ccccc2)[C@@H](CO)O1)Nc1ccc(-c2ccccc2)cc1 | i
COc1ccc(NC(=O)CSc2nc(-c3cccs3)cc(-c3ccsc3)c2C#N)cc1OC | i
COc1ccc(NC(=O)CSc2nc3c(c(C(F)(F)F)c2C#N)CCC3)c(OC)c1 | i
Cn1c(SCC(=O)Nc2cc(C(F)(F)F)ccc2Cl)nnc1-c1cnccn1 | i
COCC(=O)N(C)C[C@H]1Oc2ncc(C#CC(C)(C)O)cc2C(=O)N([C@@H](C)CO)C[C@@H]1C | i
COc1ccc(N(C(=O)c2cccnc2)S(=O)(=O)c2cccs2)cc1 | i
O=S(=O)(c1ccccc1)n1ccc(-c2ccc(C#Cc3ccccc3)cc2)n1 | i
COCCOC(=O)N1C(=O)[C@@]2(c3cc(C#CCCO)ccc31)[C@H](C(=O)N1CCN(c3ncccn3)CC1)[C@H]1C(=O)O[C@H](c3ccccc3)[C@H](c3ccccc3)N1[C@@H]2c1ccccc1OCCO | i
C[C@@H]1CN([C@@H](C)CO)C(=O)c2cc(C#CCN(C)C)cnc2O[C@@H]1CN(C)S(C)(=O)=O | i
C[C@H](NC(=O)C[C@@H]1C[C@@H]2c3cc(NC(=O)CC4CC4)ccc3O[C@@H]2[C@@H](CO)O1)c1ccccc1 | i
CCCN(C)C[C@H]1Oc2ncc(C#CCOC)cc2C(=O)N([C@H](C)CO)C[C@H]1C | i
C[C@@H]1CN([C@@H](C)CO)C(=O)c2cc(C3=CCCC3)cnc2O[C@@H]1CN(C)Cc1ccccc1 | i
C[C@@H]1CN([C@@H](C)CO)C(=O)c2cc(C#CCN(C)C)cnc2O[C@@H]1CN(C)Cc1ccccn1 | i
C[C@H]1CN([C@@H](C)CO)C(=O)c2cc(C#Cc3ccccn3)cnc2O[C@@H]1CN(C)Cc1ccccc1 | i
C[C@H](CO)N1C[C@H](C)[C@@H](CN(C)CC2CCOCC2)Oc2ncc(-c3ccc(F)cc3)cc2C1=O | i
O=C(CCCn1cc([N+](=O)[O-])cn1)Nc1ccc(F)cc1 | i
O=C(COc1cccc(C(F)(F)F)c1)NCc1ccco1 | i
C[C@H](NC(=O)C[C@@H]1C=C[C@@H](NC(=O)C2CC2)[C@@H](CO)O1)c1ccccc1 | i
COC(=O)c1cc(OC)c(OC)cc1NC(=O)C(C)Oc1ccc(C(C)(C)C)cc1 (configuration not stated) | i
O=C(CSc1n[nH]c(-c2ccccc2)n1)Nc1ccc(Br)cc1 | i
Cn1c(=O)c2c(nc(SCC(N)=O)n2Cc2ccccc2F)n(C)c1=O | i
O=C(NCC1CCCO1)C1CC(c2ccccc2O)=NO1 (configuration not stated) | i
COCC#Cc1cnc2c(c1)C(=O)N([C@H](C)CO)C[C@@H](C)[C@@H](CN(C)C(=O)CCN1CCCCC1)O2 | i
COC(=O)C[C@H]1CC[C@@H](NS(=O)(=O)c2ccc(OC)cc2)[C@H](CO)O1 | i
C[C@H]1CN([C@@H](C)CO)C(=O)c2cc(-c3cccc(C(=O)N(C)C)c3)cnc2O[C@H]1CN(C)C(=O)Cc1ccccn1 | i
CN(C)C(=O)C[C@H]1C[C@H]2c3cc(NC(=O)C4CCC4)ccc3O[C@H]2[C@H](CO)O1 | i
COc1ccc(C(=O)Nc2cc(C)ccc2NC(=O)COc2ccccc2)cc1 | i
NC(=O)CSc1oc(-c2ccccc2)nc1S(=O)(=O)c1ccccc1 | i
CO[C@H](CN(C)Cc1nccs1)[C@H](C)CN([C@H](C)CO)S(=O)(=O)c1ccc(C)cc1 | i
CCOc1ccccc1NC(=O)CSc1ncnc2sc(C)c(C)c12 | i
CCOC(=O)CSc1ncnc2scc(-c3ccc(Cl)cc3)c12 | i
CN(C)C(=O)C[C@H]1CC[C@H](NC(=O)C2CCOCC2)[C@@H](CO)O1 | i
C[C@@H]1CN([C@@H](C)CO)C(=O)c2cc(/C=C/c3ccccc3)cnc2O[C@@H]1CN(C)C(=O)C1CC1 | i
CC(=O)N(C)C[C@H]1Oc2ncc(C#Cc3ccccc3F)cc2C(=O)N([C@@H](C)CO)C[C@@H]1C | i
C/C=C/c1ccc2c(c1)O[C@H](CN(C)C(=O)c1ccccc1F)[C@@H](C)CN([C@@H](C)CO)S2(=O)=O | i
Cc1cc(C(F)(F)F)nn1CCCNC(=O)c1cc(-c2cccnc2)nc2ccc(Cl)cc12 | i
COc1ccc(Cl)c(Cn2c(NCc3ccccn3)nc3c2c(=O)n(C)c(=O)n3C)c1 | i
COc1ccccc1CC(=O)Nc1ccc(-c2noc(-c3ccc(Cl)cc3)n2)cc1 | i
COc1ccc(S(=O)(=O)N2Cc3ccccc3CC2C(=O)Nc2sc3c(c2C#N)CCCC3)cc1 (configuration not stated) | i
O=C(N[C@H]1C=C[C@@H](CC(=O)N2CCN(c3ccccc3)CC2)O[C@@H]1CO)c1ccccc1 | i
Cc1c(C(=O)N(C)C)sc2[nH]c(=O)n(-c3ccccc3C(F)(F)F)c(=O)c12 | i
Nc1cc(N)nc(SCC(=O)Nc2cccc(C(F)(F)F)c2)n1 | i
CCn1c(SCC(=O)Nc2ccccc2OC)nnc1-c1ccc(Br)cc1 | i
Cc1cc(SCC(=O)N2CCC(c3noc4ccc(F)cc34)CC2)nc2ccccc12 | i
N#Cc1ccccc1NC(=O)CS(=O)(=O)Cc1ccccc1 | i
CCCC#Cc1ccc2c(c1)O[C@H](CN(C)C)[C@H](C)CN([C@H](C)CO)S2(=O)=O | i
CN(C)C(=O)C[C@@H]1C=C[C@H](NC(=O)C2CC2)[C@H](CO)O1 | i

# Further structures.
molecule | ID4 binder
CC(C)C#Cc1cnc2c(c1)C(=O)N([C@H](C)CO)C[C@@H](C)[C@@H](CN(C)C(=O)Nc1ccc(F)cc1)O2 | i
Cc1cc(-c2nc3ccccc3s2)ccc1NC(=O)COc1ccccc1[N+](=O)[O-] | i
Cc1ccc(NC(=O)CSc2n[nH]c(-c3ccccc3)n2)c(C)c1 | i
COc1cc(CO)cc(Cl)c1OCC(=O)Nc1ccccc1F | i
COc1ccc(NC(=O)COc2ccc(C(C)(C)C)cc2Br)c([N+](=O)[O-])c1 | i
COC(=O)c1ccccc1NC(=O)CSc1nnc(-c2ccc(OC)cc2)n1C | i
CCCC#Cc1cnc2c(c1)C(=O)N([C@@H](C)CO)C[C@@H](C)[C@@H](CN(C)C(=O)C1CC1)O2 | i
C[C@H](NC(=O)C[C@H]1CC[C@@H](NC(=O)CN2CCOCC2)[C@@H](CO)O1)c1ccccc1 | i
C[C@H]1CN([C@@H](C)CO)C(=O)c2cc(-c3ccccc3)cnc2O[C@@H]1CN(C)C(=O)Cc1ccccc1 | i
O=C(CSCc1ccccc1Br)Nc1cccnc1 | i
COc1ccc(-n2c(SCC(=O)c3ccc(Cl)cc3)nnc2-c2ccccc2)cc1 | i
CN(C)c1ccc2c(c1)[C@@H]1C[C@@H](CC(=O)NCCc3ccccc3)O[C@H](CO)[C@@H]1O2 | i
C[C@@H]1CN([C@H](C)CO)C(=O)Cc2cc(N(C)C)ccc2O[C@H]1CN(C)C(=O)Nc1ccc(F)cc1 | i
CCn1c2ccccc2c2cc(NC(=O)CCCN3C(=O)CCC3=O)ccc21 | i
